GIRK2 activ: activators of human GIRK2 potassium channels | calls only for hits at 25 µM | HEK293-GIRK2 thallium flux, Thallos fluorescence | AID 1259325, 2017 | G protein-activated inward rectifier potassium channel 2 (Homo sapiens), P48051 | 63,000 compounds, 0.05% hits;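 active = among the strongest 0.2% of first-round signals and kept after retests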;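 note: first round at about 10 µM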
Target sequence (P48051 whole entry, looked up): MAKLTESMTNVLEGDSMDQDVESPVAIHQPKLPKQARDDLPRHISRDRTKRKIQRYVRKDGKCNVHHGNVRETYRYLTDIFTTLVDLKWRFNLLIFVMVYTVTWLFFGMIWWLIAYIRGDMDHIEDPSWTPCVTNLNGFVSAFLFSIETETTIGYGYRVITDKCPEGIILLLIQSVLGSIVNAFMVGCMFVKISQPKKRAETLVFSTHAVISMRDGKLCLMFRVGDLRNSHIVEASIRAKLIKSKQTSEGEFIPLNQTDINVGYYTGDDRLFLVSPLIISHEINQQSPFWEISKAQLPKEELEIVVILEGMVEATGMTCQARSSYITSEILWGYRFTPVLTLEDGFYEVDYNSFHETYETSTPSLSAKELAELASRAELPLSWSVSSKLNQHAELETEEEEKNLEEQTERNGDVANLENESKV
Calls only; i = inactive. These rows are one share of the data, so the mix of outcomes need not match the whole.

SMILES	GIRK2 activ
CC(O)Cn1c(NCCO)nc2c1c(=O)[nH]c(=O)n2C (configuration not stated)	i
COc1cccc(NC(=O)Cn2nc3ccc(SCc4ccc(Cl)cc4)nn3c2=O)c1	i
Cc1ccc(-n2c(C)cn3c4c(=O)n(CC(=O)C(C)(C)C)c(=O)n(C)c4nc23)c(C)c1	i
O=C(/C=C\c1ccc([N+](=O)[O-])cc1)N1CCN(c2ncnc3c2nnn3-c2cccc(F)c2)CC1	i
c1ccc(Cc2nnc(-c3ccsc3)o2)cc1	i
CC(=O)OC1CN(c2nc3c(C(F)(F)F)cccc3s2)C1	i
CC1CCCCC1NC(=O)C1COCC(=O)N1Cc1cccs1 (configuration not stated)	i
Cc1nnc(C2CCCN(C(=O)c3c[nH]c4ccccc34)C2)s1 (configuration not stated)	i
Cn1cc(C2=C(c3cn(C)c4cc(C(=O)O)ccc34)C(=O)NC2=O)c2ccccc21	i
CS(=O)(=O)c1ccc2nc(N(CCN3CCOCC3)C(=O)c3ccc(Cl)s3)sc2c1	i
O=C(CN1CCN(c2ccccc2F)C1=O)NC1CCN(Cc2ccccc2)CC1	i
COc1ccc(CNC(=O)N2CCC(Cn3cnc4ccccc43)CC2)cc1	i
COc1ccc(Nc2nc(N3CCCC3)nc(N3CCCC3)n2)cc1Cl	i
CCSc1nnc(NC(=O)C(C)n2nc(-c3ccccc3)ccc2=O)s1 (configuration not stated)	i
O=C(CN1CC(c2nc(-c3cccs3)no2)C1)NCc1ccccc1Cl	i
O=C(NCCC(O)c1ccoc1)C(=O)NCC1CCCO1 (configuration not stated)	i
COc1ccc(-n2nnc(C(=O)OCc3ccccc3)c2C)cc1	i
COc1ccc2cccc(NC(=O)c3c[nH]c4ccccc34)c2n1	i
O=C(CN1CCN(c2ccc3c(c2)OCO3)C1=O)Nc1ccccc1	i
COc1ccccc1N1COc2ccc3c(=O)c(-c4ccccc4)coc3c2C1	i
Cc1cccc(NC(=O)N2CCc3c(c(=O)c4cc(C)cc(C)c4n3C)C2)c1	i
Cc1nnc(C2CCCN(C(=O)c3ccc(=O)[nH]c3)C2)s1 (configuration not stated)	i
O=C(Nn1cnc2c(cnn2-c2cccc(Cl)c2)c1=O)c1ccc(Cl)cc1	i
CS(=O)(=O)Nc1cccc(NC(=O)c2cc(-c3ccco3)[nH]n2)c1	i
C/C=C/Cn1c(=O)c2c(nc3[nH]c(C)cn32)n(C)c1=O	i

Brought forward from above: 4 entries; new compounds follow.
SMILES	GIRK2 activ
Cc1nnc(C2CCCN(C(=O)c3ccc(=O)[nH]c3)C2)s1 (configuration not stated)	i
O=C(Nn1cnc2c(cnn2-c2cccc(Cl)c2)c1=O)c1ccc(Cl)cc1	i
CS(=O)(=O)Nc1cccc(NC(=O)c2cc(-c3ccco3)[nH]n2)c1	i
C/C=C/Cn1c(=O)c2c(nc3[nH]c(C)cn32)n(C)c1=O	i
COc1ccc(-c2cc3c(N4CCN(Cc5ccccc5)CC4)nccn3n2)cc1	i
Cc1ccc(S(=O)(=O)NC(C)C)c(C)c1N(C)S(=O)(=O)c1ccc(F)cc1	i
CCn1c(=O)c(C(=O)Nc2cc(Cl)ccc2C)c(O)c2sccc21	i
CC(=O)Cn1c(=O)c2c(nc3n(-c4ccc(C(F)(F)F)cc4)c(C)c(C)n23)n(C)c1=O	i
COc1ccc(OC)c(-c2csc(NC(=O)Nc3ccccc3C(F)(F)F)n2)c1	i
O=C(Nc1nc(C(=O)N2CCN(c3ccc(C(F)(F)F)cn3)CC2)co1)c1ccsc1	i
Cc1ccc(C)c(N2CCN(C(=O)CCc3nnc4ccc(-c5ccc(C)c(C)c5)nn34)CC2)c1	i
CCOc1ccc(-c2ccc(OCCNC(=O)C3CCCCC3)nn2)cc1	i
Cc1c(C(=O)NCCOc2ccc(F)cc2)nnn1-c1nccs1	i
CCc1nccn1CC1CCN(C(=O)Nc2ccccc2OC)CC1	i
N#Cc1ccc(OC2CCN(C(=O)c3csc(-c4ccccc4)n3)CC2)nc1	i
CC(=O)O[C@@H]1c2c(ccc3ccc(=O)oc23)O[C@@H]1C(C)(C)OC(=O)CC(C)C	i
Cc1cccc(-c2nnc3ccc(NS(=O)(=O)c4ccc(Br)s4)nn23)c1	i
C=CCN1CC(c2nc3ccccc3n2Cc2ccccc2Cl)CC1=O (configuration not stated)	i
COc1c(C)cc(S(=O)(=O)NCC2(CO)CC2)cc1C	i
CNc1nc2c(c(=O)n(C)c(=O)n2C)n1Cc1ccccc1	i
CCCCc1ccc(-n2nnc(C(=O)Nc3nnc(CC)s3)c2C)cc1	i
CCc1ccc(-n2nnc3c(=O)n(Cc4nc(-c5cccc(Cl)c5)no4)cnc32)cc1	i
O=C(CCC1NC(=O)c2ccccc2NC1=O)NCCC1=CCCCC1 (configuration not stated)	i
O=S(=O)(NCC(O)c1ccc2c(c1)CCO2)C1CC1 (configuration not stated)	i
O=C(COc1ccccc1)NNC(=O)c1cccn(Cc2ccc(F)cc2)c1=O	i
O=C(c1ccccc1Br)N1CC(c2nc(-c3cccc(C(F)(F)F)c3)no2)C1	i
COCC(=O)NC1CCN(c2ccc(-c3cccc(F)c3)nn2)CC1	i
CN1C(=O)Cc2cc(NC(=O)c3cc(-c4ccco4)on3)ccc21	i
Cc1cccc(C(=O)NC2CCN(C(=O)c3cn(-c4cc(C)cc(C)c4)nn3)CC2)c1	i

Next part.
SMILES	GIRK2 activ
COc1ccccc1-c1coc2cc(OC(=O)CCC3CCCC3)ccc2c1=O	i
COc1cccc(-c2noc(Cn3c(=O)n(Cc4ccccc4)c(=O)c4sccc43)n2)c1	i
Cc1ccc(S(=O)(=O)c2cnc(SCC(=O)Nc3ccc(C)c(C)c3)nc2N)cc1	i
CC(=O)c1ccc(NC(=O)CCCCCn2cnc3ccccc3c2=O)cc1	i
c1cc(-c2n[nH]c(Cn3cncn3)n2)ccn1	i
COCCNC(=O)Nc1nc2c(OC)cccc2s1	i
O=C(c1ccc(F)c(F)c1)N1CCN(c2ncnc3c2nnn3-c2ccc(F)cc2)CC1	i
O=C1CCSCC(C(=O)N2CCN(c3cccc(Cl)c3Cl)CC2)N1 (configuration not stated)	i
COc1ccc(C)cc1S(=O)(=O)N1CCN(c2ccc(-c3ccc(C)cc3)nn2)CC1	i
Cc1oc(-c2ccccc2)nc1CSc1nc2c(c(=O)[nH]1)CN(Cc1ccc(Cl)cc1)CC2	i
Cc1ccc(Cl)c(Nc2ccccc2C(=O)O)c1Cl	i
COc1ccc(SCC2CCN(C(=O)C34CC5CC(CC(C5)C3)C4)CC2)cc1	i
Cn1c(=O)c2cc(C(=O)N3CCCc4ccccc43)sc2n(C)c1=O	i
O=C(Nc1ccc(Br)cc1F)c1cn(CC(O)c2ccccc2)nn1 (configuration not stated)	i
CC12CCC(C(=O)Nc3ccc(Cl)cn3)(C(Br)C1=O)C2(C)C (configuration not stated)	i
C#Cc1cccc(Nc2ncnc3cc(OC)c(OC)cc23)c1	i
Cn1nc(N2CCC(C(=O)Nc3ccc(Br)cc3F)CC2)ccc1=O	i
COc1nn(C)cc1C(=O)N1CC(Oc2nc3c(OC)cccc3s2)C1	i
COc1ccc(-c2noc(Cn3nc(-c4ccccc4)ccc3=O)n2)c(OC)c1	i
CCCn1c(N2CCN(CC(N)=O)CC2)nc2c1c(=O)[nH]c(=O)n2C	i
COC(=O)c1ccc(NC(=O)C(=O)NCC(C)(O)Cc2ccc(OC)cc2)cc1 (configuration not stated)	i
O=C(CSc1ccc(F)cc1)N1CCN(C(=O)C2CC2c2ccc3c(c2)OCO3)CC1 (configuration not stated)	i
CC(=O)c1cccc(NC(=O)Cn2cnc3c(oc4ccccc43)c2=O)c1	i
CC(C)OCCCN1CC(O)=C(c2nc3ccccc3[nH]2)C1=N	i
COc1ccc(C2(CNC(=O)Cn3ccc4ccccc43)CCOCC2)cc1	i

4 compounds already listed, sorted by SMILES length, smallest number first:
SMILES	GIRK2 activ
CC(=O)OC1CN(c2nc3c(C(F)(F)F)cccc3s2)C1	i
Cn1nc(N2CCC(C(=O)Nc3ccc(Br)cc3F)CC2)ccc1=O	i
COc1ccc(OC)c(-c2csc(NC(=O)Nc3ccccc3C(F)(F)F)n2)c1	i
O=C(/C=C\c1ccc([N+](=O)[O-])cc1)N1CCN(c2ncnc3c2nnn3-c2cccc(F)c2)CC1	i

(next part)
SMILES	GIRK2 activ
CCc1cccc(C)c1NC(=O)Cn1cccc(S(=O)(=O)N2CCOCC2)c1=O	i
O=C(Nc1ccc(Cl)c2ncsc12)c1ccc(Cl)s1	i
O=C(CN1CCN(CC(O)C2CC2)CC1)N1CCCCCC1 (configuration not stated)	i
O=C(NCCCn1ncccc1=O)Nc1ccc2c(c1)OCO2	i
Cc1ccsc1C(O)CNC(=O)C(=O)Nc1ccc(F)c(Cl)c1 (configuration not stated)	i
COc1cc(/C=C/C(=O)NCc2sc(-c3cccs3)nc2C)cc(OC)c1OC	i
O=C(NCC(=O)N1CCC(Oc2ccccn2)CC1)c1ccccc1	i
COC(=O)Cc1ccc(NC(=O)Cc2c(C)n(C(=O)c3ccc(Cl)cc3)c3ccc(OC)cc23)cc1	i
COc1ccc(-n2c(C)nc3ccc(NC(=O)CCCc4ccccc4)cc3c2=O)cc1	i
CCSc1ccccc1C(=O)NCCC(O)C(C)(C)C (configuration not stated)	i
COc1ccc2c(c1)c(CC(=O)OCCN1CCN(CCCN3c4ccccc4Sc4ccc(Cl)cc43)CC1)c(C)n2C(=O)c1ccc(Cl)cc1	i
CN1CCc2c(sc(N)c2-c2nc3ccccc3s2)C1	i
CCc1nccn1CC1CCN(C(=O)c2ccc3c(c2)OCO3)CC1	i
COc1cc(C2c3c(oc4ccc(Cl)cc4c3=O)C(=O)N2C)cc(OC)c1OC (configuration not stated)	i
Cc1nccn1-c1ncc(NC(=O)c2ccc(F)cc2Cl)cn1	i
O=C(Nc1cc(N2CCN(c3ccccc3)CC2)ncn1)c1cc(C2CC2)on1	i
COc1ccc(OC)c(NC(=O)CSc2nccnc2N2CCN(c3ccccc3)CC2)c1	i
Cc1ccc(CNC(=O)Cn2c(=O)n(CCCCC(=O)NC(C)C)c(=O)c3ccccc32)cc1	i
COc1ccccc1OCC#CCNC(=O)CN(C)S(C)(=O)=O	i
COCCCNc1c(C(=O)OC)c(=O)[nH]c2ccc(Cl)cc12	i
O=C(Nc1ccc2c(c1)OCO2)c1ccc2nccnc2c1	i
COc1ccc2nc(CN3CCN(C(=O)c4ccc(Br)o4)CC3)[nH]c2c1	i
CC(C)c1ccc2nc(NC(=O)CCS(=O)(=O)Cc3ccccc3)sc2c1	i
CCCCCn1c(=S)[nH]c2cc(C(=O)Nc3ccc(F)c(Cl)c3)ccc2c1=O	i
C#CC(C)(CC)OCC(O)CN1CCN(c2cc(Cl)ccc2C)CC1 (configuration not stated)	i

(cont.)
SMILES	GIRK2 activ
COC(=O)c1ccc(NC(=O)c2cc3ccccc3c(=O)o2)cc1	i
Cc1cc(NC(=O)C(=O)NCCC(O)c2cc(C)oc2C)no1 (configuration not stated)	i
CCc1nc2sc(C(c3ccc(Cl)c(Cl)c3)N3CCCCC3)c(O)n2n1 (configuration not stated)	i
CCOC(=O)CCn1c(=O)c2c(nc3n(-c4cc(C)cc(C)c4)c(-c4ccccc4)cn23)n(C)c1=O	i
O=C(Nc1ccccc1C(F)(F)F)c1cc2n(n1)CCCO2	i
COc1ccc(NC(=O)C2CN(c3nc4ccc(F)cc4s3)C2)cc1Cl	i
COc1cccc(N2C(=O)C3N=NN(c4ccc(Cl)cc4)C3C2=O)c1 (configuration not stated)	i
Cc1cc(CCNC(=O)c2cncc(Br)c2)on1	i
COc1cc(-n2c(=O)c3ccccc3n(CC(=O)C(C)(C)C)c2=O)cc(OC)c1OC	i
COc1cccc(-n2c(SCc3ccccc3F)nc3ncccc3c2=O)c1	i
Cc1cc(C)cc(NC(=O)COc2ccc3c(=O)c(-c4ccccc4)coc3c2)c1	i
N#C/C(=C\c1cccs1)c1nc2ccccc2s1	i
CCOC(=O)c1cnc2ccc(NC(=O)c3ccc(S(=O)(=O)N(CC)CC)cc3)cc2c1N	i
COc1ccc(C(=O)NC(C(=O)N2CCN(C(C)=O)CC2)S(=O)(=O)c2ccccc2)cc1 (configuration not stated)	i
O=S(=O)(Cc1cccc(F)c1)N1CC(c2nc(-c3ccccc3)no2)C1	i
Cc1cc(N2CCN(C(=O)Cn3nc(-c4ccc(F)cc4)ccc3=O)CC2)ncn1	i
Cc1cc(N2C(=O)c3oc4ccccc4c(=O)c3C2c2ccccc2)no1 (configuration not stated)	i
C/C=C(/C)C(=O)OC(C)(C)C1Cc2cc3ccc(=O)oc3cc2O1 (configuration not stated)	i
CCOC(=O)Cn1cc(-c2nc(C)no2)ccc1=O	i
COc1ccc(C2C(C(=O)Nc3ccccc3)=C(C)N=c3s/c(=C/c4cnn(C)c4C)c(=O)n32)cc1 (configuration not stated)	i
O=C(Cn1nc(N2CCOCC2)c2ccccc2c1=O)Nc1ccc2c(c1)OCO2	i
CCOC(=O)N1CCN(C(=O)CCc2nc3sc4c(c3c(=O)[nH]2)CCC(C)C4)CC1 (configuration not stated)	i
O=C(OC1CN(c2nc3c(Cl)cccc3s2)C1)c1ccsc1	i
O=C(c1nc2ccccc2s1)N(Cc1ccoc1)Cc1cccs1	i
O=C(Cn1nc2ccc(-c3ccc(Cl)cc3)nn2c1=O)N1CCN(c2ccccc2)CC1	i
CN(C)C(=O)c1nnn(-c2ccc(NC(=O)C3c4ccccc4Oc4ccccc43)cc2)n1	i
COc1ccccc1NC(=O)c1ccc(NS(=O)(=O)c2ccc(C(C)(C)C)cc2)cc1	i
N#Cc1nc(-c2ccc(COc3ccc(Cl)cc3)o2)oc1N1CCCC1	i

Retrieved by compound from the list above (2):
SMILES	GIRK2 activ
O=C(Cn1nc2ccc(-c3ccc(Cl)cc3)nn2c1=O)N1CCN(c2ccccc2)CC1	i
COc1ccc(C(=O)NC(C(=O)N2CCN(C(C)=O)CC2)S(=O)(=O)c2ccccc2)cc1 (configuration not stated)	i

Exported field by field: entries from further up.
Compound: CN(C)C(=O)c1nnn(-c2ccc(NC(=O)C3c4ccccc4Oc4ccccc43)cc2)n1
  GIRK2 activ = i
Compound: COc1ccc(C(=O)NC(C(=O)N2CCN(C(C)=O)CC2)S(=O)(=O)c2ccccc2)cc1 (configuration not stated)
  GIRK2 activ = i
Compound: O=C(Nc1ccccc1C(F)(F)F)c1cc2n(n1)CCCO2
  GIRK2 activ = i
Compound: N#Cc1nc(-c2ccc(COc3ccc(Cl)cc3)o2)oc1N1CCCC1
  GIRK2 activ = i
